HTT prom inh: HTT promoter inhibition | 0.93% of 48,000 active | HEK293 HTT promoter firefly luciferase reporter (activity 0% = vehicle and -100% = no light), 24 h | Potency, µM (titrated, usually from 57.5 µM), without a hit: at the highest dose activity change, negative = inhibition, actives largely listed as inhibitors; active = well fitted inhibition curve with a large enough effect; inconclusive = small, poorly fitted or top-dose-only effect; inactive = no such curve, though single readings can be large or run the other way; also: nearly all actives have a fitted effect of over 50% in size
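Firefly luciferase signal from promoter-reporter HEK293 cells was scaled between vehicle (0%) and zero RLU (-100%). Compounds were tested at final concentrations of up to 57.5 uM over 24 h at 37 degrees C. PTC124 at 50 uM final served as control inhibitor.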
PMP22 txn prim: modulates PMP22 transcription in S16 Schwann cells. S16 Pmp22-F2sN Schwann cells (luciferase reporters placed in the Pmp22 gene), FLuc/NLuc coincidence luminescence, 24 h. Potency, µM (highest dose often 57.5 µM), inactives show top-dose activity change, negative = inhibition, hits mostly inhibitors. 2% of 43,000 active. AID 1508649; active = clear falling dose curves in both reporters; inconclusive = both reporters move, but less clearly or upward; inactive = either reporter flat; the % is the NLuc reporter signal; also: % is scaled to controls: 0 for no effect and ±100 for the full control effect; some results filed as inactive show a strong effect at the top dose
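Transcriptional readout in edited S16(c9) cells: two luciferases reported from the Pmp22 locus, measured in turn after 24 h compound incubation.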
* marks the source's active call; other numbers are inactive results; ? = inconclusive; . = no result given; [ ] = another dose, or the depositor's remark. Potency is read from the fitted curve at half-maximal effect.

Sample of the layout, 4 compounds:
Second line of a record – HTT prom inh, PMP22 txn prim
O=C(Cn1c(=O)n(Cc2ccc(C(=O)NCc3ccc4c(c3)OCO4)cc2)c(=O)c2ccccc21)Nc1cccc(Cl)c1
  -6%, ?
COc1ccc(N(Cc2cccs2)C(=O)c2ccc(C(C)(C)C)cc2)cc1
  ?, -33%
Cc1cc(C)cc(Nc2cc(C(=O)NCCCN(Cc3ccccc3)C(C)C)c3ccccc3n2)c1
  -19%, 14%
COc1ccc(OC)c(NC(=O)c2c(C)oc3ncnc(N4CCOCC4)c23)c1
  1%, -18%

All compounds of this part (from the top)
Second line of a record – HTT prom inh, PMP22 txn prim
O=C(Cn1c(=O)n(Cc2ccc(C(=O)NCc3ccc4c(c3)OCO4)cc2)c(=O)c2ccccc21)Nc1cccc(Cl)c1
  -6%, ?
COc1ccc(N(Cc2cccs2)C(=O)c2ccc(C(C)(C)C)cc2)cc1
  ?, -33%
Cc1cc(C)cc(Nc2cc(C(=O)NCCCN(Cc3ccccc3)C(C)C)c3ccccc3n2)c1
  -19%, 14%
COc1ccc(OC)c(NC(=O)c2c(C)oc3ncnc(N4CCOCC4)c23)c1
  1%, -18%
COc1ccc2cc(-c3nc(Cl)c4c5c(sc4n3)CCCC5)c(=O)oc2c1
  -6%, 0%
CCOc1ccccc1CNC(=O)c1ccc(-c2nc(CSc3ccc(C)cc3)c(C)o2)cc1
  ?, -7%
Cc1cc(C)cc(OCC(=O)Nc2ccc(S(=O)(=O)Nc3onc(C)c3C)cc2)c1
  -5%, 3%
O=C(Nc1ccc(OC(F)(F)F)cc1)C1CCN(S(=O)(=O)c2cccs2)CC1
  ?, ?
COc1ccc(CCNC(=O)Cn2cc(S(=O)(=O)Cc3cccc(Cl)c3)c3ccccc32)cc1OC
  -24%, -31%
COc1ccc(S(=O)(=O)c2c(Nc3c(C)cccc3C)sc(C(=O)c3ccc(F)cc3)c2N)cc1
  ?, ?
CCN(C(=O)c1cc2c(s1)-c1ccccc1OC2)c1cccc(C(F)(F)F)c1
  ?, 20µM*
COc1ccc(NC(=O)Cn2c(=O)n(Cc3ccccc3)c(=O)c3sc4ccccc4c32)cc1
  -6%, -1%
COc1ccc(S(=O)(=O)n2nc(C)c(S(=O)(=O)N3CCCCCC3)c2C)cc1OC
  -13%, -10%
COCCCNC(=O)c1ccc(Cn2c(=O)c3ccccc3n(CC(N)=O)c2=O)cc1
  -8%, -9%
COc1ccc(OC)c(CCNC(=O)Cn2ccc3cc(S(=O)(=O)N4CCCCC4)ccc32)c1
  ?, ?

(more compounds)
Second line of a record – HTT prom inh, PMP22 txn prim
CN(C)c1ccccc1CN1CCCN(Cc2ccccc2N(C)C)C1c1ccncc1
  -4%, .
COc1cccc(C(=O)Nc2cc(-c3cn4cccnc4n3)ccc2C)c1OC
  4%, -17%
Cc1ccc2c(=O)cc(C(=O)Nc3sc4c(c3C(=O)NCC3CCCO3)CCC4)oc2c1 (centres undefined)
  -14%[11.5 µM], 11%
Cc1ccc(Cl)cc1NC(=O)C(C)n1nnc2sc(-c3ccccc3)cc2c1=O (centres undefined)
  -3%, -9%
Cc1cc(Nc2cccc(Cl)c2)nc2ccc(NC(=O)COc3ccc(Cl)cc3)cc12
  -2%, ?
COc1ccc(CNC(=O)c2cc3c(=O)[nH]c4ccc(C)cc4c3s2)c(OC)c1
  -6%, -23%
COc1ccc(NC(=O)Cn2c(C)c3cnn(-c4ccccc4)c(=O)c3c2C)c(OC)c1
  -16%, -37%
COc1ccc(CCNC(=O)CN(c2cc(C(F)(F)F)ccc2Cl)S(C)(=O)=O)cc1
  -9%, 6%
COC(=O)c1ccc(NC(=O)CCc2c(C)nn(-c3ccc(N4CCOCC4)nn3)c2C)cc1
  -5%, 27%
CC(=O)NCC(c1ccc2c(c1)OCO2)N1CCN(c2ccccc2)CC1 (centres undefined)
  -7%, ?
CCOC(=O)c1c(C)n(-c2ccccc2)c2ccc(OC(=O)COc3ccc(Cl)cc3)cc12
  -7%, -5%
CCOC(=O)CN(Cc1ccccc1)C(C(=O)NC1CCCCC1)c1ccccc1 (centres undefined)
  ?, ?
Cc1ccc(C)c(NC(=O)CSc2ncc3c(n2)-c2cc(Cl)ccc2N(Cc2ccccc2F)S3(=O)=O)c1
  -12%, ?
Nc1nnc(SCC(=O)Nc2ccccc2C(F)(F)F)s1
  -9%, 5%
Cc1cc(OCCCS(C)(=O)=O)cc(C)c1-c1cccc(COc2ccc3c(c2)OC[C@H]3CC(=O)O)c1
  -34%, .

(cont.)
Second line of a record – HTT prom inh, PMP22 txn prim
COc1cccc(NC(=O)c2oc3ccc(S(=O)(=O)N4CCOCC4)cc3c2C)c1
  -27%, -8%
O=C(NCc1ccc(Cl)cc1)c1ccc2c(c1)N(Cc1ccccc1F)C(=O)c1ccccc1S2=O (centres undefined)
  -17%, ?
CN(C(=O)CSc1nc2ccccc2n1CC(=O)N(C)C1CCCCC1)c1ccccc1
  0%, ?
Cc1ccc(C)c(NC(=O)CSc2nc(=O)n(CCN3CCOCC3)c3c2CCC3)c1
  -5%, -24%
Cc1oc2ncn(C)c(=O)c2c1C(=O)Nc1ccccn1
  -8%, -17%
CC(=O)N1CCCc2cc(S(=O)(=O)N3CCC(C(=O)NC4CCC(C)CC4)CC3)ccc21 (centres undefined)
  -16%, -14%
CC(=O)c1ccc(Oc2ncnc3c2oc2ccccc23)cc1
  54%[activator], 0%
Cc1ccc(CNC(=O)C(C(C)C)N2Cc3ccccc3C2=O)cc1 (centres undefined)
  ?, -29%
COc1ccc(C)cc1NC(=O)COCc1cc(-c2cccs2)on1
  -15%, 9%
CCC(Cn1nnc2ccccc2c1=O)NC(=O)Nc1ccccc1OC (centres undefined)
  -12%, ?
N=C(N)c1ccc(OCCCOc2ccc(C(=N)N)cc2)cc1
  4%, .
Cc1ccc(CN2C(=O)C3(SCC(=O)N3c3ccc(C)c(C)c3)c3ccccc32)cc1 (centres undefined)
  -35%, ?
Cc1ccc(NC(=O)c2c(C)oc3ccc(O)c(CN4CCCCCC4)c23)cc1
  -14%, ?
O=C(CN1C(=O)COc2ccc(S(=O)(=O)N3CCOCC3)cc21)N1CCN(c2ccccc2)CC1
  0%, -17%
CCOc1ccc(OCC)c(NC(=O)C2CCCN(S(=O)(=O)c3cc(Br)cc4c3N(C(=O)CC)CC4)C2)c1 (centres undefined)
  4%, ?

(further entries)
Second line of a record – HTT prom inh, PMP22 txn prim
CSc1ccc(CCNC(=O)CCc2c(C)nc3c(-c4ccccc4)c(C)nn3c2C)cc1
  -35%, ?
COc1cccc(OCCSc2nc3ccccc3n2CC(=O)N2CCCCC2)c1
  -26%, -44%
COc1ccc(C(=O)Nc2ccc(C(=O)OCc3cc(=O)n4nc(C5CC5)sc4n3)cc2)cc1
  2%, 1%
CCOC(=O)c1c(C)oc2nc(C)nc(N(C)Cc3ccccc3)c12
  ?, ?
CC(C)C[C@H](NC(=O)[C@H](Cc1ccccc1)NC(=O)c1cnccn1)B(O)O
  ?, .
COc1cccc(C(=O)N2c3ncnn3C3(CCCCC3)[C@@H]3CCCC[C@@H]32)c1
  -25%, ?
Cc1ccc(NC(=O)Cn2ncn3c(cc4ccccc43)c2=O)cc1C
  -11%, 30%
O=C(CC1N=C2c3ccccc3N=C(SCc3cccc(Cl)c3)N2C1=O)NCc1ccc2c(c1)OCO2 (centres undefined)
  -18%, ?
Cc1ccc2[nH]c3c(=O)n(CC(=O)N(C)Cc4ccccc4)ncc3c2c1
  -4%, -8%
CCc1nn(CC(=O)N2CCN(c3cccc(C)c3C)CC2)c(=O)c2cc3occc3n12
  -11%, ?
CCCc1nn2c(=O)cc(COC(=O)c3ccc(NC(=O)C4CCCCC4)cc3)nc2s1
  ?, ?
COc1ccccc1N1CCN(C(=O)CN2C(=O)COc3ccc(S(=O)(=O)N4CCCCCC4)cc32)CC1
  -15%, ?
COc1ccccc1Cc1nc2ccccc2nc1SCC(=O)Nc1c(C)cccc1C
  -13%, 2%
Cc1[nH]c(C)c(Cl)c(=O)c1Cl
  -4%[25.2 µM], .
COc1ccc(OC)c(S(=O)(=O)NCCS(=O)(=O)N2CCN(c3ccccc3)CC2)c1
  ?, -26%

Next section:
Compound	HTT prom inh	PMP22 txn prim
O=C(Nc1ccc(O)c(-c2nc3ccccc3o2)c1)c1sc2ccccc2c1Cl	-17%	-10%
Fc1ccc(N2CCN(c3ncnc4[nH]ncc34)CC2)cc1	-23%	-15%
COc1ccc(-c2cn3c(n2)sc2cc(C(=O)Nc4ccc(C)c(C)c4)ccc23)cc1	-2%	23%
Cc1ccc(Cl)cc1-n1c(=O)c2sc3ccccc3c2n(CC(=O)NC2CCCCC2)c1=O	-15%	-5%
CNC(=O)c1c(NC(=O)c2ccc(S(=O)(=O)N3CCCCC3C)cc2)sc2c1CCC2 (centres undefined)	-16%	?
CCc1ccc(CNC(=O)C2CCCN(c3nn4cc(-c5ccc(F)cc5)nc4s3)C2)cc1 (centres undefined)	4µM*	-39%
COc1ccc(CCNC(=O)CCn2c(=O)c3ccccc3n(Cc3cc(C)ccc3C)c2=O)cc1OC	-11%	-4%
COc1ccc(OC)c(CNC(=O)C2CCN(S(=O)(=O)c3cn(C)cn3)CC2)c1	-4%	-8%
COc1ccc(CC(=O)NCCc2csc(-c3cccc(C)c3)n2)cc1	5%	-16%
COc1cn(CC(=O)Nc2c(C)cc(C)cc2C)c(CN2CCCCC2)cc1=O	-15%	12%
Cc1ccc(NC(=O)Cn2c(=O)n(Cc3ccco3)c(=O)c3oc4ccccc4c32)cc1C	-2%	-18%
CCS(=O)(=O)c1nc(S(=O)(=O)c2ccc(Cl)cc2)c(NCc2ccccc2Cl)s1	-17%	4.8µM*
CCOC(=O)c1cc(NC(=O)c2ccc(F)cc2)c(=O)n2c1oc1ccc(Cl)cc12	0%	-12%
Cc1ccccc1NC(=O)CSc1cn(CC(=O)N2CCCCCC2)c2ccccc12	?	?
COC(=O)c1cc(Cl)ccc1NS(=O)(=O)C(F)(F)F	-5%	.

2 records drawn at random from those above:
Compound	HTT prom inh	PMP22 txn prim
COc1ccc(CCNC(=O)CCn2c(=O)c3ccccc3n(Cc3cc(C)ccc3C)c2=O)cc1OC	-11%	-4%
COC(=O)c1cc(Cl)ccc1NS(=O)(=O)C(F)(F)F	-5%	.

Next part
Compound	HTT prom inh	PMP22 txn prim
Cc1ccc(-n2c(SCC(=O)Nc3c(C)cccc3C)nc(O)c(C)c2=O)cc1	-10%	1%
CC(=O)c1ccc(NC(=O)CC2Oc3ccc(C)cc3NC2=O)cc1 (centres undefined)	-15%	-25%
CCc1cc2c(cc3c(=O)n(CC(=O)NC(C)c4ccccc4)ncn32)s1 (centres undefined)	10%	?
Cc1ccc(Nc2c(-c3ccc(N4CCOCC4)cc3)nc3c(C)cccn23)cc1	-5%	-56%
CCN(CC)CCCNC(=O)C1CCN(S(=O)(=O)CC)CC1	-17%	-5%
CCOc1ccc(C(=O)Nc2ccc3oc(-c4cccnc4)nc3c2)cc1	-9%[11.5 µM]	-21%
CC(=O)N1CCCc2cc(S(=O)(=O)N3CCC(C(=O)NCc4ccccc4)CC3)ccc21	-19%	-15%
O=C(CN1C(=O)COc2ccc(S(=O)(=O)N3CCCCCC3)cc21)N1CCN(c2ccccc2)CC1	-13%	-27%
NS(=O)(=O)c1ccc(Nc2nc(OCC3CCCCC3)c3[nH]cnc3n2)cc1	-16%	.
CCc1ccc(NC(=O)c2ccc3c(=O)n4nc(Nc5ccccc5C)sc4nc3c2)cc1	?	?
Cc1cccc(C(=O)Nc2ccc(C(=O)OCc3cc(=O)n4c5c(sc4n3)CCCC5)cc2)c1	?	-7%
CCc1cccc(NC(=O)c2c(N3CCCC3=O)c3cc(C)ccc3n2C)c1	?	?
CN(C)Cc1cccc(N=C(c2ccccc2)c2c(O)[nH]c3cc(C(=O)N(C)C)ccc23)c1	?	.
Cc1cc(C)n2c(Nc3ccc(C(C)C)cc3)c(-c3ccsc3)nc2n1	4%	-41%
CC1=C(C(=O)Nc2cccc(C)c2C)C2(CCCCC2)OC1=O	-13%	-2%

Further entries:
Compound	HTT prom inh	PMP22 txn prim
Cc1ccc(CNC(=O)C2CCN(S(=O)(=O)c3ccc4c(c3)oc(=O)n4C)CC2)cc1	-17%	-13%
COc1cc2c(cc1OC)C(COc1ccc(F)cc1)N(C(=O)Cc1ccccc1)CC2 (centres undefined)	-20%	1%
O=C(NCc1ccc2c(c1)CCN2C(=O)c1ccccc1)c1ccccc1	-2%	-27%
Cc1ccc2oc(=O)c3cnn(CC(=O)Nc4cccc(C(F)(F)F)c4)c3c2c1	-3%	-10%
COc1ccc(N2CCN(CCCNC(=O)c3cc(Nc4ccccc4OC)nc4ccccc34)CC2)cc1	?	-5%
Cc1nc(-c2cccc(F)c2)sc1CCNC(=O)C(=O)Nc1ccc2c(c1)OCCO2	-39%	?
COC(=O)Cc1c(C)nc2nc(-c3ccc(C)cc3)[nH]n2c1=O	8%	-5%
CCOC(=O)N1CCN(C(=O)c2cnn(-c3cccc(F)c3)c2-n2cccc2)CC1	-16%	-7%
